Assay outcomes (PubChem)
Arbovirus anti: antivirals against arbovirus infection | arbovirus infection cell-based antiviral screen | inhibition, % at 10 µM | actives 0.37% (n = 200,000) | AID 1251;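 active = inhibition from about 30%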;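 note: bluetongue infection of BSR cells; cell survival read as ATP light after 72 h; 0% = infected wells without compound and 100% = uninfected wells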
YopH inh: blocks Yersinia enterocolitica YopH tyrosine phosphatase. inhibition, %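 (about 10 µM by stock and volumes)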. actives 0.16% (n = 140,000). fluorescence Ex485/Em525;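 active = inhibition of 50% or more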;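 note: controls were vehicle for no effect and minimum signal wells for full effect; inactives centre near -20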
RecA splice inh: inhibitors of M. tuberculosis RecA intein splicing. P9WHJ3. cell-free RecA intein splicing, fluorescence. inhibition, %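 (about 9 µM by stock and volumes)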. actives 0.75% (n = 290,000). AID 2221; in the data active = inhibition above about 30%;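 note: 0% = vehicle wells and 100% = reference inhibitor control wells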
Target sequence (P9WHJ3 whole entry, looked up, canonical isoform): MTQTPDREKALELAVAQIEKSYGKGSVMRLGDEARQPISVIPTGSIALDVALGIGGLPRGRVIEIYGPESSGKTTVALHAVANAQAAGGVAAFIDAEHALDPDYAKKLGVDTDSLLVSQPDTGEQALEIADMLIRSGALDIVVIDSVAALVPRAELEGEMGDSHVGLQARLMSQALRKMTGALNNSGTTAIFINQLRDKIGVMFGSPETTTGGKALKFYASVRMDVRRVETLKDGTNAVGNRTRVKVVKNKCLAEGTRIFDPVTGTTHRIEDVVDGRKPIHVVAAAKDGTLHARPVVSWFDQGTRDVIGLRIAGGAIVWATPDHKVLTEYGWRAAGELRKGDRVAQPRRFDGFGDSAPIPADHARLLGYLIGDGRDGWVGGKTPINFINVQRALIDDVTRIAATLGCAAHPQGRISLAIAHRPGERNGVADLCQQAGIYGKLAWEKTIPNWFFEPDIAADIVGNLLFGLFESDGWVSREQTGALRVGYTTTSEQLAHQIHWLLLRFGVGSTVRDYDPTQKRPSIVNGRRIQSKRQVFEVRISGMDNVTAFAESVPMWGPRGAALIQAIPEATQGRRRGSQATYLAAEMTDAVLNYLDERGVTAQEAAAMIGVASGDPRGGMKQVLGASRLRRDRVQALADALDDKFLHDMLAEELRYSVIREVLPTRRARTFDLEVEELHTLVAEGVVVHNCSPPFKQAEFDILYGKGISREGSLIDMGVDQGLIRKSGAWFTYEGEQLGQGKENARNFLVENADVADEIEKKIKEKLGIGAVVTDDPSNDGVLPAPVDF
Mtb growth: M. tuberculosis H37Rv growth inhibitors, H37Rv strain (AID 1626); M. tuberculosis H37Rv growth inhibition; higher % means a stronger effect; inhibition, % at 10 µM; hits with a dose series show IC50 in µM; actives 0.95% (n = 220,000);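 active = confirmed in a dose series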;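 note: bacteria incubated seven days before Alamar blue readout; 0% = bacteria only wells and 100% = bacteria with antibiotic wells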
Mtb bLac sens: beta-lactam sensitization of Mtb H37Rv | M. tuberculosis H37Rv growth with meropenem, percent inhibition; hits of this screen are not shown here | inhibition, % at 25 µM | actives 0.27% (n = 330,000) | AID 434955;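 active = about 74% or more and at least 40 points above the plate without the antibiotic, then above 30% in a dose series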;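 note: growth measured after seven days incubation then overnight dye step; 0% = bacteria only wells and 100% = bacteria with antibiotic; twin plates without the antibiotic show which effects depend on it; some results filed as inactive read as strong as hits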
Starred values were filed as active, the others as inactive. These rows are one share of the data; count on the stated rates, not on these rows.

For O=S(=O)(Cc1ccc(Cl)cc1)Nc1ccc(Cl)cn1 the results were Arbovirus anti 9, RecA splice inh -0.6, Mtb growth 0% and Mtb bLac sens -1.
`c1ccc(-c2csc(-c3cccnc3)n2)cc1` gave Arbovirus anti -11, RecA splice inh 2.1, Mtb growth 2% and Mtb bLac sens -4.
CCO[C@H]1OC(C(=O)N2CCN(C)CC2)=C[C@@H](c2ccc(C(F)(F)F)cc2)[C@@H]1CCCO was read as Arbovirus anti -2, RecA splice inh 1.9, Mtb growth 6% and Mtb bLac sens -3.
`COc1cc(NS(=O)(=O)c2ccc(NC(=O)COc3ccc(C)cc3C)cc2)nc(OC)n1` gave Arbovirus anti 1, YopH inh -3, RecA splice inh 0.7, Mtb growth 2% and Mtb bLac sens 21.
For CC(C)C1C(=O)CC(c2ccccc2)NC1c1ccccc1 (configuration not stated) the results were RecA splice inh -3.6 and Mtb bLac sens 7.
COc1ccc(CN2CCC(C(=O)NCCc3ccc(OC)c(OC)c3)CC2)c(OC)c1 was read as Arbovirus anti 0, YopH inh -16, RecA splice inh 1.3, Mtb growth -2% and Mtb bLac sens -4.
Screening C#CCNC(=O)C1=C[C@@H](c2cn(C(C)=O)c3ccccc23)C[C@@H](OCCCCO)O1 returned Arbovirus anti -1, RecA splice inh 3.3 and Mtb bLac sens -1.
Screening CCCc1nnc(SCC(=O)NC2CC2)n1C returned RecA splice inh -0.4 and Mtb bLac sens -2.
CC(C)(C)c1ccc(NC(=O)Nc2ccc(OCC(=O)N3CCOCC3)cc2)cc1 was read as Arbovirus anti -20, RecA splice inh 2.2, Mtb growth -12% and Mtb bLac sens -6.
`COc1ccccc1-c1cc(C(=O)NC2CCCC2)no1` gave RecA splice inh 0.5 and Mtb bLac sens 10.
Screening CCOc1ccc2c(c1)C(=O)C(=O)N2CC1COc2ccccc2O1 (configuration not stated) returned RecA splice inh 3.9 and Mtb bLac sens 5.
Screening c1cncc(-c2cccnc2)c1 returned Arbovirus anti 5, YopH inh -28, Mtb growth -1% and Mtb bLac sens -2.
CCc1cccc(OCC(=O)Nc2ccc(C(=O)O)cc2NC(=O)COc2cccc(CC)c2)c1 was read as RecA splice inh 5.2 and Mtb bLac sens -2.
Cc1ccc(CNC(=O)C2CCC(=O)N(CCc3ccc(Cl)cc3)C2)cc1 (configuration not stated) was read as RecA splice inh 1.4 and Mtb bLac sens -6.
COc1ccc(NC(=O)Cn2cc(S(=O)(=O)Cc3ccccc3)c3ccccc32)c(OC)c1 was read as Arbovirus anti 13, YopH inh -16, RecA splice inh 3.3, Mtb growth 7% and Mtb bLac sens 0.
Screening COc1ccc(N(CC(=O)Nc2cccc(C(C)=O)c2)S(C)(=O)=O)cc1OC returned Arbovirus anti -1, YopH inh -29, RecA splice inh -0.5, Mtb growth -1% and Mtb bLac sens -5.
Screening O=c1[nH]c(Nc2ccccc2)cc2ccccc12 returned Arbovirus anti 2, YopH inh 101*, RecA splice inh 64*, Mtb growth -8% and Mtb bLac sens 2.
`CCC(=O)Nc1ccc(/C(C)=N/NC(=O)c2c(-c3ccccc3Cl)noc2C)cc1` gave Arbovirus anti 0, YopH inh 5, RecA splice inh 0.3, Mtb growth 9% and Mtb bLac sens 9.
`C=CCN1C=C2C(=O)C(C)(OC(=O)CCC(=O)OC)C(=O)C=C2C=C1C1CC1` (configuration not stated) gave RecA splice inh 2.6, Mtb growth -4% and Mtb bLac sens -4.
Screening CC(C)C(=O)Nc1cccc(C(=O)Nc2cc([N+](=O)[O-])ccc2Cl)c1 returned Arbovirus anti 1, RecA splice inh 1.0, Mtb growth 9% and Mtb bLac sens -1.

Retrieved by compound from the entries so far (four):
`COc1ccccc1-c1cc(C(=O)NC2CCCC2)no1` gave RecA splice inh 0.5 and Mtb bLac sens 10.
CCO[C@H]1OC(C(=O)N2CCN(C)CC2)=C[C@@H](c2ccc(C(F)(F)F)cc2)[C@@H]1CCCO was read as Arbovirus anti -2, RecA splice inh 1.9, Mtb growth 6% and Mtb bLac sens -3.
COc1ccc(NC(=O)Cn2cc(S(=O)(=O)Cc3ccccc3)c3ccccc32)c(OC)c1 was read as Arbovirus anti 13, YopH inh -16, RecA splice inh 3.3, Mtb growth 7% and Mtb bLac sens 0.
`C=CCN1C=C2C(=O)C(C)(OC(=O)CCC(=O)OC)C(=O)C=C2C=C1C1CC1` (configuration not stated) gave RecA splice inh 2.6, Mtb growth -4% and Mtb bLac sens -4.

Other compounds.
Screening Cc1nc2ccccc2c(=O)n1/N=C/c1ccccc1 returned Arbovirus anti 2, YopH inh -4, RecA splice inh 2.9, Mtb growth 3% and Mtb bLac sens 8.
C=CCn1c(SCC(=O)c2ccc(Br)cc2)nnc1C(CC(C)C)NC(=O)c1cccs1 (configuration not stated) was read as Arbovirus anti -5, YopH inh -23, RecA splice inh 0.4, Mtb growth -3% and Mtb bLac sens 2.
`CCc1ccc2c(c1)c1nc(C)sc1n2CC(=O)OC` gave Arbovirus anti -9, YopH inh 2, RecA splice inh 0.0, Mtb growth -3% and Mtb bLac sens 94.
Screening Cc1ccc(OCc2cnc(Cl)s2)c(C)c1 returned Arbovirus anti 4, RecA splice inh 3.2, Mtb growth 1% and Mtb bLac sens -9.
For N/C(=N\OC(=O)COc1ccc(Br)cc1)c1ccncc1 the results were Arbovirus anti -1, YopH inh -30, RecA splice inh -2.3, Mtb growth 15% and Mtb bLac sens 2.
For COC(=O)c1cccc(NC(=O)c2cnccn2)c1 the results were RecA splice inh -1.5 and Mtb bLac sens -3.
COc1cc(CCC(O)CC(=O)CCc2ccccc2)ccc1O (configuration not stated) was read as Arbovirus anti -3, RecA splice inh -2.3, Mtb growth -13% and Mtb bLac sens -2.
O=C(COc1ccc(Cl)cc1Cl)Nc1ccc(Cl)cn1 was read as Arbovirus anti 0, YopH inh -20, RecA splice inh 1.6, Mtb growth 8% and Mtb bLac sens 16.
`COc1ccc(N2CCN(CC(=O)c3c(C)n(C)c4ccc(OC)cc34)CC2)cc1` gave RecA splice inh 2.0, Mtb growth 7% and Mtb bLac sens 17.
Screening Cc1ccc(CNc2ccc(N3C(=O)CC(C)C3=O)cc2[N+](=O)[O-])cc1 (configuration not stated) returned Arbovirus anti 9, YopH inh -30, RecA splice inh -11, Mtb growth -2% and Mtb bLac sens -2.
CCOC(=O)c1nc(Nc2ccc(C(=O)O)cc2)c2ccccc2n1 was read as Arbovirus anti 6, YopH inh -41, RecA splice inh 3.0, Mtb growth 5% and Mtb bLac sens -8.
Screening O=C(CN1C(=O)NC2(CCCC2)C1=O)OCCOc1ccccc1Cl returned RecA splice inh -0.8 and Mtb bLac sens -5.
`Cc1nn(C)c(C)c1NC(=O)c1ccc(S(=O)(=O)N(C)C)cc1` gave Arbovirus anti -1, YopH inh 7, RecA splice inh 3.7, Mtb growth -4% and Mtb bLac sens 0.
Screening COCC(=O)n1nc(-c2ccccc2)nc1NCc1ccccc1 returned Arbovirus anti -7 and Mtb growth 11%.
`N=C1C(c2ccccc2)=C(O)CN1c1cccc(S(=O)(=O)Nc2cccc(C(F)(F)F)c2)c1` gave Arbovirus anti -19, YopH inh -27, RecA splice inh 0.6, Mtb growth 72% and Mtb bLac sens 99.
For O=C(Nc1ccc(F)cc1)NC1(C(=O)NCc2cccs2)CCCCC1 the results were Arbovirus anti -2, YopH inh -2, RecA splice inh -0.3, Mtb growth -5% and Mtb bLac sens 1.
For O=C(NC1=NCCS1)c1ccc(-c2ccc(Cl)cc2)o1 the results were Arbovirus anti -14, YopH inh -26, RecA splice inh -2.6, Mtb growth 28µM* and Mtb bLac sens 97.
`Cc1[nH]n(-c2ccccc2)c(=O)c1N=O` gave Arbovirus anti -17, RecA splice inh 6.1, Mtb growth -4% and Mtb bLac sens -2.
`C=CCN1C(=O)N/C(=C/c2ccc(C)o2)C1=O` gave Arbovirus anti 2, YopH inh -24, RecA splice inh 0.6, Mtb growth -5% and Mtb bLac sens -10.
O=C(NC1=NCCS1)c1ccccc1OCc1ccccc1Cl was read as Arbovirus anti 8, RecA splice inh 3.7, Mtb growth 15% and Mtb bLac sens 7.
`Cn1ccc(C(=O)Nc2ccc3c(c2)OCCO3)n1` gave RecA splice inh -0.1 and Mtb bLac sens -9.
For O=C1COc2ccc(C(=O)CSc3nnnn3-c3ccccc3)cc2N1 the results were Arbovirus anti 6, YopH inh -36, RecA splice inh -7.0, Mtb growth 4% and Mtb bLac sens -7.
`COc1ccc(NC(=O)CCSc2nnnn2C)cc1` gave Arbovirus anti -1, RecA splice inh 3.0, Mtb growth -4% and Mtb bLac sens -7.
For COc1ccc(CN2CCN(c3ncnc4scc(-c5ccc(F)cc5)c34)CC2)cc1 the results were RecA splice inh 11 and Mtb bLac sens 93.
For Cc1ccc(SC[C@H](C)CN2CC[C@H](NC(=O)OCc3ccccc3)CCC2=O)cc1 the results were RecA splice inh 2.4 and Mtb bLac sens -1.
`O=C(Nc1ccncc1)c1ccc(Cl)cc1` gave RecA splice inh -1.2 and Mtb bLac sens -1.
COc1ccccc1NS(=O)(=O)c1cc([N+](=O)[O-])ccc1N/N=C/c1c[nH]c2ccccc12 was read as Arbovirus anti -13, YopH inh -10, RecA splice inh 1.3, Mtb growth -2% and Mtb bLac sens 11.
Cc1cccn2c(CNCC(C)Oc3cccnc3)c(C(=O)N3CCOCC3)nc12 (configuration not stated) was read as RecA splice inh -1.0, Mtb growth -4% and Mtb bLac sens 2.
Screening CC(=O)c1cccc(S(=O)(=O)N2CCC(C(=O)O)CC2)c1 returned Arbovirus anti 10, RecA splice inh 1.7, Mtb growth -3% and Mtb bLac sens -3.
Screening O=c1[nH]nc(SCCS(=O)(=O)c2ccc(F)cc2)n1-c1ccccc1C(F)(F)F returned RecA splice inh 0.6, Mtb growth -6% and Mtb bLac sens -1.
Cn1nnnc1SCc1ccc(C(=O)Nc2ccccc2F)cc1 was read as Arbovirus anti 2, YopH inh -10, RecA splice inh -0.8, Mtb growth 0% and Mtb bLac sens -8.
`O=C(NCc1ccc2c(c1)OCO2)c1ccc(N2CCCC2=O)cc1` gave Arbovirus anti -3, YopH inh 9, RecA splice inh -2.7, Mtb growth -9% and Mtb bLac sens -10.
`Cc1ccc(C(=O)CCC(=O)N2CCN(c3ccccc3O)CC2)cc1` gave RecA splice inh 4.0 and Mtb bLac sens -9.
COC(=O)c1c[nH]n2c(=O)c(Cc3ccc(F)cc3Cl)c(C)nc12 was read as Arbovirus anti -13, YopH inh -21, RecA splice inh 2.6, Mtb growth -7% and Mtb bLac sens 3.
For COc1ccc(CCC(=O)OCc2csc(CC(=O)Nc3ccccc3C)n2)cc1 the results were RecA splice inh 2.0 and Mtb bLac sens -14.
`COC(=O)Cn1cc(C(=O)c2cccs2)c2ccccc21` gave Arbovirus anti 2, YopH inh -20, RecA splice inh 3.9, Mtb growth -7% and Mtb bLac sens 63.
`COc1cc(NC(=O)CN2C(=O)COc3ccc(S(=O)(=O)N4CCCCC4)cc32)cc(OC)c1` gave RecA splice inh 0.0 and Mtb bLac sens 0.
`CC(=O)N1CCN(c2ccc(Oc3ccc([N+](=O)[O-])c(C(F)(F)F)c3)cc2)CC1` gave RecA splice inh 8.1 and Mtb bLac sens 95.
CCOc1ccc(NC(=O)CCNS(=O)(=O)c2ccc(Br)s2)cc1 was read as Arbovirus anti 6, YopH inh 21, RecA splice inh 2.9, Mtb growth 55% and Mtb bLac sens 95.
`COc1cn(-c2ccccc2)nc1C(=O)Nc1ccc(C)cc1Cl` gave RecA splice inh 0.9 and Mtb bLac sens 3.

Gathered by group, the entries above with a furan ring, fused or not (2)
For O=C(NC1=NCCS1)c1ccc(-c2ccc(Cl)cc2)o1 the results were Arbovirus anti -14, YopH inh -26, RecA splice inh -2.6, Mtb growth 28µM* and Mtb bLac sens 97.
`C=CCN1C(=O)N/C(=C/c2ccc(C)o2)C1=O` gave Arbovirus anti 2, YopH inh -24, RecA splice inh 0.6, Mtb growth -5% and Mtb bLac sens -10.

The list continues:
Screening Cn1c(=O)[nH]c(=O)c2c1nc(SCCN1CCCCC1)n2Cc1ccccc1 returned Arbovirus anti 10, YopH inh 4, RecA splice inh -0.5, Mtb growth 1% and Mtb bLac sens -4.
COc1cccc(OC)c1C(=O)N1CCN(Cc2ccccc2C(F)(F)F)CC1 was read as Arbovirus anti -6, YopH inh 10, RecA splice inh 5.9, Mtb growth 2% and Mtb bLac sens 0.
`O=C(O)c1cnc(-c2ccccc2)nc1-c1ccccc1` gave Arbovirus anti 5, RecA splice inh -3.1 and Mtb bLac sens 2.
COc1ccc(Cn2nnnc2C(c2cccs2)N2CCN(c3ccc([N+](=O)[O-])cc3)CC2)cc1 (configuration not stated) was read as Arbovirus anti -1, YopH inh -34, RecA splice inh 1.3, Mtb growth 6% and Mtb bLac sens -2.
Screening Cc1ccc(S(=O)(=O)c2c(N)n(CCCO)c3nc4ccccc4nc23)cc1 returned Arbovirus anti 0, YopH inh -6, RecA splice inh -16, Mtb growth -4% and Mtb bLac sens -7.
`COC(=O)CCC(=O)Nc1cc(S(=O)(=O)Nc2ccc(Cl)cc2)ccc1N1CCOCC1` gave Arbovirus anti 10, YopH inh -26, RecA splice inh -1.2, Mtb growth -1% and Mtb bLac sens -3.
For CCN1C(=NCCc2cccnc2)N[C@@H](c2ccccc2)C(C(=O)OC)=C1C the results were RecA splice inh -2.2 and Mtb bLac sens -11.
